Screens from PubChem BioAssay.
PMP22 txn prim = Cell-based coincidence reporter assay to measure PMP22 gene transcription in S16 Pmp22-F2sN cells - Primary screen; S16 Pmp22-F2sN Schwann cells (luciferase reporters placed in the Pmp22 gene), FLuc/NLuc coincidence luminescence, 24 h; Potency, µM (titrated, usually from 57.5 µM), inactives show at the top dose activity change, negative = inhibition, hits mostly inhibitors; actives 2% (n = 43,000); AID 1508649, 2021; active = clear falling dose curves in both reporters; inconclusive = both reporters move, but less clearly or upward; inactive = either reporter flat; the % is the NLuc reporter signal; note: % is set by controls: 0 for no effect and ±100 for the full control effect; some results filed as inactive show a strong effect at the top dose
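Rat S16 Pmp22-F2sN cells, 500-1,000/well in phenol red-free DMEM + 10% FBS, compound-treated 24 h (37C, 5% CO2). Luminescence: FLuc read, Stop&Glo added, NLuc read.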
HTT prom inh = Primary qHTS for Identification of Small Molecule Inhibitors of Huntingtin Promoter Activity. HEK293 HTT promoter firefly luciferase reporter (activity 0% = vehicle and -100% = no light), 24 h. Potency, µM (highest dose often 57.5 µM), inactives show at the highest dose activity change, negative = inhibition, hits mostly inhibitors. actives 0.93% (n = 48,000); active = well fitted inhibition curve with a large enough effect; inconclusive = small, poorly fitted or top-dose-only effect; inactive = no such curve, though single readings can be large or run the other way; note: nearly all actives have a fitted effect of over 50% in size
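Luminescence was read after Dual-Glo reagent and a 10 min room-temperature incubation. Values were normalized to vehicle (0% activity) and zero RLU (-100% activity). Reporter HEK293 cells had been exposed to compounds (up to 57.5 uM final) for 24 h.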
* hit, by the source's call; ? = inconclusive; . = not tested or not shown; [ ] = remark or other dose. Potency is the fitted concentration of half-maximal effect.

SMILES	PMP22 txn prim	HTT prom inh
COc1ccc(CNC(=O)C2=C(C)C(=O)OC23CCN(C(C)=O)CC3)cc1	1%	-4%
Cc1ccccc1-c1noc(-c2ccc(NCc3cccnc3)c([N+](=O)[O-])c2)n1	?	-29%
CCn1c(C(=O)N2CCC(C(=O)NCCc3ccc(C)cc3)CC2)cc2sccc21	-87%	?
O=C(CN1C(=O)COc2ccc(S(=O)(=O)N3CCCCCC3)cc21)N1CCN(c2ccc(Cl)cc2)CC1	?	-28%
COc1ccccc1-c1cc(C(F)(F)F)nc(S(=O)(=O)CCCC(=O)Nc2ccc(F)cc2F)n1	11µM*	21%
O=C(CNC(=O)c1ccccc1)OCc1cc(=O)n2nc(C3CC3)sc2n1	-13%	-14%
Cc1ccc(N2CCN(C(=O)c3ccc(Nc4nc5ccccc5n5nnnc45)cc3)CC2)c(C)c1	-15%	4%
CCCOc1ccccc1C(=O)N1CCCCC1CCN1CCOCC1 (configuration not stated)	3%	-5%
CC(C)NS(=O)(=O)c1ccc(OCC(=O)N2CCN(c3ccccc3F)CC2)cc1	-23%	?
COc1ccc(CCNC(=O)c2ccc3c(c2)N(Cc2ccccc2F)C(=O)c2ccccc2S3(=O)=O)cc1OC	6%	22%
CCS(=O)(=O)N1CCc2cc(C(=O)NCc3ccccc3OC)ccc21	-17%	-6%
Nc1ccc2c(c1)CN1C(=O)c3ccccc3C1=N2	.	-27%[25.2 µM]
Cc1cc(C)c(NC(=O)CSc2nc(=O)n(Cc3ccncc3)c3c2CCC3)c(C)c1	10%	-48%
CCOc1ccc(NC(c2ccc(Cl)cc2)c2nnc(-c3cccc(F)c3)o2)cc1 (configuration not stated)	2%	-15%
COC(=O)c1c(C)oc2ccc(N(C(=O)c3ccncc3)S(=O)(=O)c3ccc(OC)cc3)cc12	5.3µM*	2.2µM*
COc1ccc(C(=O)Nc2ccc(-c3nc4ncccc4o3)cc2)cc1	5%	23%[11.5 µM]
Cc1ccc(CNC(=O)c2cc3c(=O)oc4ccc(C)cc4c3s2)cc1	?	-6%
CC(C)(Cc1c[nH]c2ccccc12)NCC(O)COc1ccccc1C#N (configuration not stated)	.	-6%
CCCc1cnc2c(c1SCC(=O)N(C)c1ccccc1)c(=O)n(C)c(=O)n2C	5%	-7%
CCOC(=O)c1c(NC(=O)c2ccc(S(=O)(=O)N(CC(C)C)CC(C)C)cc2)sc2c1CCN(CC)C2	?	?
COc1cc(OC)c(NC(=O)NCc2cccn2Cc2ccccc2)cc1Cl	-19%	4%
COc1ccc(-c2noc(CNC(=O)c3cc(OC)c(OC)c(OC)c3)n2)cc1	-4%	-5%
CCOC(=O)c1[nH]c2ccccc2c1NC(=O)c1cc(Cl)ccc1Cl	?	-23%
COc1cc(NC(=O)CN2CCCN(Cc3cccc(F)c3)S2(=O)=O)cc(OC)c1	-15%	-2%
O=C(Nc1ccc(Cl)cc1F)c1cc(S(=O)(=O)NCc2ccc3c(c2)OCO3)ccc1F	6%	-19%
COc1ccc(C(=O)Oc2c(Sc3ccccc3)c(C)nn2-c2ccccc2)cc1OC	-29%	?
Cc1cc(C)n(CCc2nc3c4ccccc4nc(N4CCN(c5ccccc5F)CC4)n3n2)n1	18%	-12%
CCN(C(=O)Cn1ncc2c(=O)oc3ccc(C)cc3c21)c1cc(OC)ccc1OC	-10%	1%
COc1ccccc1OCC(=O)N(Cc1ccc(Cl)cc1)CC1CCCO1 (configuration not stated)	0%	-11%
Cc1ccc(N(CC(=O)Nc2cccc(Cl)c2C)S(=O)(=O)c2c(C)noc2C)cc1	-7%	?
COc1ccc(NC(=O)CCCS(=O)(=O)c2nc(-c3ccc(OC)c(OC)c3)cc(C(F)(F)F)n2)cc1OC	4.5µM*	-9%
CCn1c(=O)c(=O)n(CC)c2cc(N3CCCCC3)c(NC(=O)c3ccc(OC)c(OC)c3)cc21	-14%	20%
O=C(NCCc1ccccc1)c1ccc(CSc2nc3ccncc3n2Cc2ccc(F)cc2)cc1	?	-26%
CCOc1ccccc1NS(=O)(=O)c1cnc(N)nc1	-6%	1%
CCOc1cccc(NC(=O)c2ccc(F)c(S(=O)(=O)N(CC)c3cccc(C)c3)c2)c1	?	?
O=C(CCSCCc1ccccn1)Nc1ccccc1C(F)(F)F	6%	-19%
CCC(=O)OCc1cc(=O)n2nc(C3CC3)sc2n1	-12%	7%
COc1cc(C(=O)N2CCC(c3ccncc3)CC2)cc(OC)c1OC	-8%	-18%
O=C(Nc1ccc2nc(SCC(=O)N3CCCC3)sc2c1)c1ccc(F)cc1	-25%	-22%
O=C(NCCc1ccc(Cl)cc1)c1ccc2c(c1)N(Cc1ccccc1)CCS2	-99%	-9%

Copied from the listing for reference:
SMILES	PMP22 txn prim	HTT prom inh
COc1cc(OC)c(NC(=O)NCc2cccn2Cc2ccccc2)cc1Cl	-19%	4%
COc1ccc(-c2noc(CNC(=O)c3cc(OC)c(OC)c(OC)c3)n2)cc1	-4%	-5%
CCOC(=O)c1[nH]c2ccccc2c1NC(=O)c1cc(Cl)ccc1Cl	?	-23%
COc1cc(NC(=O)CN2CCCN(Cc3cccc(F)c3)S2(=O)=O)cc(OC)c1	-15%	-2%
O=C(Nc1ccc(Cl)cc1F)c1cc(S(=O)(=O)NCc2ccc3c(c2)OCO3)ccc1F	6%	-19%

Following part:
SMILES	PMP22 txn prim	HTT prom inh
O=C(CN1CCSc2ccccc21)N1CCCCC1	0%	-13%
CCOc1ccc(CNCCNC(=O)c2nonc2N)cc1	-20%	-14%
COc1ccccc1N1CCN(c2c3c(nc4nncn24)CCC3)CC1	-9%	-8%
COc1ccccc1NC(=O)Cn1c(=O)n(CC2CCC(C(=O)NCCc3ccccc3)CC2)c(=O)c2ccccc21 (configuration not stated)	?	-9%
CCOc1ccccc1CNC(=O)CSc1n[nH]c(-c2ccccc2)n1	-13%	-29%
CCCCn1c(=O)c2oc3ccccc3c2n(Cc2cccc(F)c2)c1=O	-23%	-9%
CCn1c(CN2CCCCC2)nc2cc(NC(=O)COc3ccccc3C(C)(C)C)ccc21	14µM*	-35%
COc1cccc(Cn2c(C)c(CNCc3ccccc3Cl)c(C(=O)O)c2C)c1	-13%	12%
CCCNc1c(NC(=O)c2ccc(OCCC)cc2)c(=O)oc2ccccc12	-2%	-20%
COc1ccc(Cl)cc1NC(=O)Cn1nc(C(F)(F)F)c2c1CCC2	-27%	-28%
CCc1ccc(C2NC(=O)c3[nH]nc(-c4cccc(OC)c4)c32)cc1 (configuration not stated)	?	-4%
O=C(Cn1ccc2cc(S(=O)(=O)N3CCCC3)ccc21)NCc1ccc(Cl)cc1	-4%	-22%
CCc1ccc2ncc(S(=O)(=O)c3ccc(Cl)cc3)c(N3CCN(CC)CC3)c2c1	?	-19%
COc1ccc(NC(=O)C2=C(C)Nc3nc(SCc4ccc(Cl)cc4)nn3C2c2cccc(OC)c2OC)cc1 (configuration not stated)	?	-4%
O=C(NCCc1ccc(Cl)cc1)c1ccc(CSCc2ccc(Cl)cc2)o1	-5%	-22%
COc1cccc(N(Cc2nnc3n2CCCCC3)C(=O)Nc2ccccc2)c1	12%	-17%
CC1=C(c2cccc(Cl)c2)S(=O)(=O)NC1=NCc1ccccc1C	-33%	-20%
Cc1ccc([N+](=O)[O-])cc1S(=O)(=O)N(C)N=Cc1cnc2ccc(Br)cn12	.	?
COc1ccc(CNC(=O)CN2N=C(c3ccccc3)CCC2=O)c(OC)c1	1%	-14%
CCN(c1ccc(C)cc1)S(=O)(=O)c1nnc(NC(=O)c2cccs2)s1	-30%	?

4 entries from above, with each value named.
COc1cc(C(=O)N2CCC(c3ccncc3)CC2)cc(OC)c1OC
  PMP22 txn prim = -8%
  HTT prom inh = -18%

O=C(CNC(=O)c1ccccc1)OCc1cc(=O)n2nc(C3CC3)sc2n1
  PMP22 txn prim = -13%
  HTT prom inh = -14%

CCOC(=O)c1[nH]c2ccccc2c1NC(=O)c1cc(Cl)ccc1Cl
  PMP22 txn prim = ?
  HTT prom inh = -23%

CCOc1ccc(NC(c2ccc(Cl)cc2)c2nnc(-c3cccc(F)c3)o2)cc1 (configuration not stated)
  PMP22 txn prim = 2%
  HTT prom inh = -15%

Next part:
SMILES	PMP22 txn prim	HTT prom inh
CC(=O)Nc1ccc(C)cc1-c1nc2ccccc2n(CC(=O)c2ccc(Cl)cc2)c1=O	-23%	-5%
CCc1cccc(NC(=O)C2Cc3ccccc3N2C(=O)c2ccccc2)c1 (configuration not stated)	?	0%
Cc1ccc(NC(=O)c2ccc(F)c(S(=O)(=O)NCCc3ccccc3)c2)cc1F	?	28µM*
Cc1ccc(N2CCN(c3nc4ccccc4c4nnc(C)n34)CC2)c(C)c1	-23%	-1%
Cc1ccc2oc(C(=O)Nc3nc(-c4ccc(F)cc4)ns3)c(C)c2c1	1%	2%
Cc1cccc(NC(=O)CSc2nnc3scc(-c4ccccc4)n23)c1	-12%	-12%
Cc1ccccc1OCC(=O)N1CCC(c2nc3ccccc3s2)CC1	6%	-29%
CCOC(=O)c1c(C)[nH]c(C)c1S(=O)(=O)NCC(=O)N1CCN(c2cccc(C)c2)C(C)C1 (configuration not stated)	16%	-29%
O=C(NCCc1ccccc1Cl)c1ccc(Cn2c(=O)c3cccn3c3cccnc32)cc1	?	?
COc1ccc(C2=NN(CCC(=O)NCCc3ccccc3)C(=O)CC2)cc1	5%	-5%
CCOc1ccc(C(=O)OCc2cc(=O)n3nc(C4CCCCC4)sc3n2)cc1	?	-25%
Cc1c(Cl)cccc1NC(=O)c1cc(-c2cccs2)on1	?	-16%[11.5 µM]
CCS(=O)(=O)c1nc(S(=O)(=O)c2ccc(C)cc2)c(NCc2ccccc2Cl)s1	4%	-24%
O=C(CCC(=O)N1CCSc2ccccc21)Nc1ccc(Cl)cc1	?	-16%
COc1ccccc1N1CCN(S(=O)(=O)CCNC(=O)Cc2ccc(Cl)cc2)CC1	?	?
COC(=O)c1ccc(NC(=O)CC2C(=O)N(c3cccc(F)c3)C(=O)N2CC(C)C)cc1 (configuration not stated)	1%	?
CCOc1ccc(CC(=O)NCc2ccc3c(c2)CCN3C(=O)c2ccccc2)cc1OCC	-17%	-18%
COc1ccc2c(CNCc3ccccc3OC)c(C(=O)O)n(Cc3ccc(F)cc3Cl)c2c1	-16%	8%
Cc1cc(C)cc(OCC(=O)N(Cc2ccc(Cl)cc2)C2CCS(=O)(=O)C2)c1 (configuration not stated)	-2%	?
COc1ccc(CNC(=O)CCc2c(C)nc3c4cccnc4nn3c2C)cc1	-8%	-14%
COc1ccc(N2C(=O)CS(=O)(=O)C23C(=O)N(Cc2ccc(C)cc2)c2ccccc23)cc1Cl (configuration not stated)	-4%	?
O=C(Nc1ccc(N2CCC(c3ccccc3)C2)c(C(=O)O)c1)c1ccc(Cl)cc1 (configuration not stated)	-16%	-22%
CC(C)OC(=O)c1c(NC(=O)c2cc3nc(-c4ccccc4)cc(C(F)(F)F)n3n2)sc2c1CCCC2	-9%	-13%
Fc1ccc(Nc2nc3ccccc3c3nncn23)c(Cl)c1	-24%	0%
Cc1c(C(=O)N2CCC(C(=O)Nc3ccc(F)c(Cl)c3)CC2)sc2nc[nH]c(=O)c12	?	1%

This is a subset; count on the stated rates, not on these rows.
